StopGo reporter – lowers the luciferase signal of an FMDV 2A StopGo reporter; AID 1159524; human cells with a luciferase reporter of 2A StopGo recoding; control for the full effect not named in the record; Potency, µM (highest dose often 57.9 µM), for the others: at the top dose signal change, negative = less light; 1.2% of 410,000 active; active = well fitted falling curve with a large enough effect; inconclusive = small, poorly fitted or top-dose-only effect; inactive = no such curve, though single readings can be large or run the other way; tested in HEK293T cells; also: % is scaled to controls: 0 for no effect and ±100 for the full control effect; nearly all actives have a fitted effect of over 45% in size; luciferase light after 4 h
NS1 inh – inhibitors of influenza NS1 protein function; S. cerevisiae slowed by influenza A NS1, growth recovery by OD600; 0.4% of 270,000 active; Potency, µM (top dose mostly 46.1 µM), for the others: top-dose activity, positive = more growth; also: actives are rising curves; nearly all actives have a fitted effect of over 50% in size
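Compounds were scored for reversing the slow growth caused by influenza A NS1 in S. cerevisiae, measured by optical density at 600 nm. Assay medium contained 2% galactose at pH 6.0; NS1-free yeast of the same strain were the positive control.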
RE007 growth inh – less growth of the S. pombe RE007 Vpr strain. S. pombe RE007 Vpr strain, BacTiter-Glo ATP luminescence, 24 h; control for the full effect not named in the record. Potency, µM (top dose mostly 92.2 µM), for the others: top-dose activity change, negative = less growth. 0.21% of 360,000 active. AID 651644; active = well fitted falling curve with a large enough effect; inconclusive = small, poorly fitted or top-dose-only effect; inactive = no such curve, though single readings can be large or run the other way;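 also: % is scaled to controls: 0 for no effect and ±100 for the full control effect; nearly all actives have a fitted effect of over 50% in size; the assay follows cell death caused by Vpr and the record does not say whether a fall means rescue or toxicity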
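Fission yeast strain RE007, carrying one chromosomally integrated HIV-1 vpr copy, was seeded at OD 0.01 in PMG+AL medium with 23 nL pinned compound. After 24 h at 30 °C and 99% humidity, viability was read by BacTiter-Glo luminescence.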
Cruzain inh Det – cruzain (T. cruzi) inhibition with detergent; P25779; purified cruzain, Z-FR-AMC fluorescence, 0.01% Triton; Potency, µM, inactives show max response, negative = inhibition, actives largely listed as inhibitors; 0.43% of 200,000 active; active = well fitted curve in the direction sought with a large enough effect; inconclusive = small, poorly fitted or top-dose-only effect, or another doubt; inactive = no such curve, though single readings can be large; an effect the other way counts as inactive or inconclusive;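 also: plate controls were neutral wells for no effect and buffer without enzyme for full effect; nearly all actives have a fitted effect of over 40% in size; top concentration of the series not given in the record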
Target sequence (P25779 123-467 limits assumed): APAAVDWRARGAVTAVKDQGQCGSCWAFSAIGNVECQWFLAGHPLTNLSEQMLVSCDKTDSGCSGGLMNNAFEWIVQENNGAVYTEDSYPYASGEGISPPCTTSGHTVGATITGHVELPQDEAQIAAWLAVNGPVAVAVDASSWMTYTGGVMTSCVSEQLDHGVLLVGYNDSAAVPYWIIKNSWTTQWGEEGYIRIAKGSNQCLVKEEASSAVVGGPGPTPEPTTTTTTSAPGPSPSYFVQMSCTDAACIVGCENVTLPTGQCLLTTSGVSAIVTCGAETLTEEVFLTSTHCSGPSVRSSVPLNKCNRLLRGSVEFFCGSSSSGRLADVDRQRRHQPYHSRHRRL
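Enzyme 1.5 nM, Z-FR-AMC 2 uM, NaOAc 100 mM pH 5.5, DTT 5 mM, Triton X-100 0.01%; 15 min RT compound preincubation; kinetic ex360/em450, 60 s delta.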
Lassa entry inh – Lassa virus entry inhibition; Lassa virus pseudotype entry inhibition, cell reporter; control for the full effect not named in the record; Potency, µM (top dose mostly 37.9 µM), for inactives: at the highest dose activity change, negative = inhibition, actives largely listed as inhibitors; 1.2% of 300,000 active; AID 540256; active means well fitted inhibition curve with a large enough effect; inconclusive means small, poorly fitted or top-dose-only effect, or effect the other way; inactive means flat fitted curve, though single readings scatter; tested in HEK293 cells; also: % is scaled to controls: 0 for no effect and ±100 for the full control effect; nearly all actives have a fitted effect of over 50% in size; luciferase read-out
MARV entry inh – Marburg virus entry inhibition | AID 540276 | Potency, µM (doses to about 37.8 µM), without a hit: at the highest dose activity change, negative = inhibition, usual class: inhibitors | Marburg virus pseudotyped entry inhibition, cell reporter; control for the full effect not named in the record; about a third of the inactives were read at about 46 µM | 1.8% of 300,000 active; active = well fitted inhibition curve with a large enough effect; inconclusive = small, poorly fitted or top-dose-only effect, or effect the other way; inactive = flat fitted curve, though single readings scatter; tested in HEK293 cells; about a fifth of its hits are not listed in these tables; also: % is scaled to controls: 0 for no effect and ±100 for the full control effect; luciferase read-out
Cruzain noTriton – blocks cruzain activity in detergent-free assay; P25779; 2.3% of 200,000 active; purified cruzain, Z-FR-AMC fluorescence, no detergent; AID 1476; Potency, µM, without a hit: max response, negative = inhibition, usual class: inhibitors; active = well fitted curve in the direction sought with a large enough effect; inconclusive = small, poorly fitted or top-dose-only effect, or another doubt; inactive = no such curve, though single readings can be large; an effect the other way counts as inactive or inconclusive;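 also: plate controls were enzyme without inhibitor for no effect and buffer without enzyme for full effect; nearly all actives have a fitted effect of over 40% in size; top concentration of the series not given in the record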
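Purified cruzain at 1.5 nM, pre-incubated 15 min with compound at room temperature in 100 mM sodium acetate pH 5.5, 5 mM DTT, 0.00005% Triton X-100. Reaction started with 2 uM Z-FR-AMC; AMC fluorescence increase over 60 s gives rate.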
SARS PLP yeast – blocks SARS-CoV papain-like protease in a yeast assay. S. cerevisiae expressing SARS-CoV PLpro, growth rescue; control for the full effect not named in the record. Potency, µM (series often up to 32.9 µM), for inactives: top-dose activity, positive = growth rescue. 0.19% of 330,000 active; also: 0% is about no effect; nearly all actives have a fitted effect of over 55% in size; growth read by luminescence after 48 h
* marks the source's active call; other numbers are inactive results; ? = inconclusive; nt = not tested or not shown; & = joins results of further samples; [ ] = dose if it differs, or a comment. Unless noted, calls follow the shape of the dose curve; as a rule, active means well fitted rising curve with a large enough effect; inconclusive means small, poorly fitted or top-dose-only effect; inactive means no such curve, though single readings can be large or run the other way. Potency is read from the fitted curve at half-maximal effect.

SMILES	StopGo reporter	NS1 inh	RE007 growth inh	Cruzain inh Det	Lassa entry inh	MARV entry inh	Cruzain noTriton	SARS PLP yeast
Cc1ccc(S(=O)(=O)N2CCC(c3nnc(SCCN4CCCC4)n3C)CC2)cc1	0%	-33%	-6%	nt	0%	-11%[46.1 µM]	nt	0%
CCn1c(Cc2ccc(OC)cc2)nnc1SCC(=O)Nc1nc2ccccc2s1	-15%	-4%	12%	6.3%	-14%	-5%&-5%	-16%	3%
COc1ccc(C2C(C#N)=C(N)N(Nc3ccccc3)C3=C2C(=O)CC(C)(C)C3)cc1C (stereo unspecified)	-12%	19%	3%	-4.0%	0%	?	1%	-3%
C=C1CCN([C@H](C(=O)NCc2ccc(OC)cc2)C(C)C)S(=O)(=O)c2ccccc21	10%	10%	15%	nt	nt	nt	nt	1%
COc1ccc(N2CCN(C(CNC(=O)C(=O)NCc3cccnc3)c3cccnc3)CC2)cc1 (stereo unspecified)	-6%	nt	nt	4.3%	-3%[46.1 µM]	nt	?	nt
COc1ccc(C2CC(=O)C(C=NCC(C)C)=C(O)C2)cc1 (stereo unspecified)	-3%	-31%	8%	nt	nt	nt	nt	-4%
CN1CCN(C(=O)/C=C/c2ccccc2)CC1	8%	-5%	12%	nt	6%[46.1 µM]	-6%[46.1 µM]	nt	-4%
CCCCN(CC)C(=O)c1cc2c(=O)n3cccc(C)c3nc2n1C	-19%	nt	nt	-0.6%	-19%[46.1 µM]	nt	15%	nt
CCCN(CCC)C(=O)c1ccc2c(c1)N(CC)C(=O)c1ccccc1S2(=O)=O	-7%	-6%	0%	nt	-12%[46.1 µM]	?	nt	4%
O=C(Nc1ncc(S(=O)(=O)c2ccc([N+](=O)[O-])cc2)s1)c1ccccc1F	-28%	-1%	0%	nt	nt	nt	nt	1%
COc1ccc(NC(=O)c2ccc(Cn3cc(Cl)cn3)cc2)cc1	-3%	2%	-2%	nt	8%[46.1 µM]	13%&13%[46.1 µM]	nt	-1%
CCCOC(=O)Nc1nc(-c2ccc(C)cc2)c(C)s1	20%	nt	?	nt	11µM*	0%[46.1 µM]	nt	-7%
C=CCOC(=O)C1=C(C)N=C2SCCC(=O)N2C1/C=C/c1ccccc1 (stereo unspecified)	1%	18%	22%	nt	nt	nt	nt	1%
Cc1ccc(-n2ncc(C(=O)NCc3ccccc3C)c2-n2cccc2)cc1	-11%	nt	nt	-10%	3%[46.1 µM]	nt	10%	nt
CCOc1cc(C(=O)Nc2c(NC)c3ccccc3oc2=O)cc(OCC)c1OCC	-14%	nt	nt	4.9%	2%[46.1 µM]	8%[46.1 µM]	-1%	nt
Cc1ccc(C(=O)n2c3ccccc3c3ccccc32)cc1	12%	5%	-12%	-2.0%	?	?	-9%	-22%
CCC1Sc2ccc(S(=O)(=O)CCC(=O)Nc3ccc(C(=O)OC)cc3)cc2NC1=O (stereo unspecified)	0%	8%	11%	nt	nt	nt	nt	?
COc1cccc(Nc2nc3ccc(C(=O)c4ccccc4)cc3n3c(C)nnc23)c1	-19%	nt	nt	-0.7%	-9%[46.1 µM]	3%[46.1 µM]	-5%	nt
Cc1ccc(C(C)C)cc1OCCOCCN1CCCC1	-10%	-1%	8%	3.1%	-15%	?	0%	-5%
Cc1ccc(C(=O)N(C)CC(=O)Nc2cccc(C)c2C)o1	-7%	5%	-11%	nt	nt	3%	nt	-1%
Cc1c(Cl)cccc1NC(=O)NCc1cccnc1	23%	-13%	-2%	nt	-3%[46.1 µM]	-4%[46.1 µM]	nt	16%
CCCCCCCOC(=O)c1ccc(OC(=O)c2cccnc2)cc1	nt	7%	4%	-6.2%	-20%	-9%	?	-2%
O=C(NCCO)c1ccc2[nH]c3ccccc3c2c1	3%	-8%	0%	-2.4%	-5%	-1%	-2%	-1%
CC(=O)c1cc(-c2ccc(F)cc2)n(CCC(=O)NCc2ccccc2C)c1C	-8%	nt	nt	-7.0%	nt	?	15%	nt
O=C(NCC(c1ccco1)N1CCc2ccccc2C1)C(=O)Nc1ccccc1F (stereo unspecified)	6%	nt	4%	nt	0%	?	nt	3%
COc1cnc(SCC(=O)O)[nH]c1=O	17%	21%	12%	9.0%	-1%	3%	7%	5%
COc1cc(C=C2C(=O)c3ccccc3C2=O)cc(OC)c1OC	?	nt	6%	nt	-5%[46.1 µM]	?	nt	-6%
O=C(Cc1ccccc1)NC(=S)Nc1cccc(C(F)(F)F)c1	-11%	-47%	-17%	-7.2%	?	-18%	6%	11%
O=C1C2C3C=CC(C3)C2C(=O)N1c1cccnc1 (stereo unspecified)	nt	10%	-15%	4.2%	15%	6%	7%	nt
CCOC(=O)N1CCN(C(=O)/C(=C/c2cccs2)NC(=O)c2cccs2)CC1	77%[activator]	11%	11%	nt	-28%	nt	nt	1%
Cc1c(Cl)cccc1NC(=O)CCN1C(=O)NC(C)(C)C1=O	0%	nt	-7%	nt	-7%	5%[46.1 µM]	nt	3%
CC(C)N1CC=C(c2c[nH]c3ccccc23)CC1	?	9%	-7%	-2.2%	?	7%	0%	3%
CCOc1ccc(OCC)c(NC(=O)CNS(=O)(=O)c2cccs2)c1	-5%	-1%	18%	-0.2%	16%	-6%	1%	1%
CCCCc1cc(=O)oc2cc(OCC(=O)N(CC)CC)c(Cl)cc12	-19%	-44%	-1%	-0.6%	nt	-1%	24%	-4%
CC1(C)CC(C)(c2ccc(O)cc2O)N(c2ccc3ccccc3c2)C(=S)N1 (stereo unspecified)	-2%	23%	4%	-7.4%	-4%	-9%[46.1 µM]	10%	19%
COc1cccc(CNCCc2c[nH]c3ccccc23)c1	-2%	5%	-10%	nt	?	11µM*	nt	2%
CC1CCN(S(=O)(=O)c2ccc(S(=O)(=O)NCc3ccccc3)cc2)CC1	33%[activator]	-1%	1%	4.2%	-10%	-2%	16µM*	0%
CCOc1ccc(C(=O)NC(=S)Nc2cccc(NC(=O)c3ccco3)c2)cc1[N+](=O)[O-]	0%	11%	-7%	-2.5%	?	?	?	0%
O=C(CCc1ccccc1)c1ccc2c(c1)OCCCO2	39%[activator]	-14%	-23%	-2.2%	?	22%	?	-15%
Cc1nc2c(C(=O)NCCc3ccc(Cl)cc3)c[nH]n2c(=O)c1Cc1ccc(Cl)cc1	-18%	nt	nt	?	0%[46.1 µM]	-2%[46.1 µM]	-23%	nt
O=C(CN1CCOCC1)NNC(=S)Nc1ccccc1	-2%	5%	26%	nt	nt	nt	nt	-1%
CCN(CC)CCNC(=O)c1nn(-c2ccc(Cl)cc2)c2c1CCc1cc(OC)ccc1-2	?	nt	12%	nt	?	?	nt	nt
CCc1cc(=O)oc2cc(OCC(=O)N3CCc4ccccc43)ccc12	nt	10%	nt	6.1%	nt	-6%	-4%	0%
CC(C)CCOCC(O)CCC(=O)NNC(=S)Nc1ccccc1 (stereo unspecified)	12%	3%	28%	-0.9%	nt	nt	6%	-13%
Cc1c2c(nc3c(C(=O)NC4CC4)cnn13)CCCC2	0%	-18%	0%	-1.4%	15%	?	3%	-4%
O=C(Cn1cc(C(=O)c2ccccc2F)c2ccccc21)NCc1ccco1	22%	13%	-5%	-7.4%	1%	?	-2%	2%
CCOc1ccc(N(Cc2ccc(C(=O)O)cc2)S(=O)(=O)c2ccc(C)cc2)cc1	-24%	6%	-3%	nt	-21%	?	nt	-2%
CCOC(=O)c1cc2c(=O)n3ccccc3nc2n(Cc2ccco2)c1=NC(=O)c1cccc(OC)c1	21%	nt	11%	nt	-8%	?	nt	0%
CC(=O)c1ccc(N2CCN(S(=O)(=O)c3cc(-c4cc(C)no4)ccc3C(C)C)CC2)cc1	-18%	4%	17%	nt	nt	nt	nt	-3%
O=C(c1ccc(C(F)(F)F)cc1)C1CCCN(Cc2ccc(CO)o2)C1 (stereo unspecified)	-5%	2%	-12%	nt	nt	nt	nt	0%
CCOC(=O)C1CCN(C(=O)CSCCSCC(=O)N2CCC(C(=O)OCC)CC2)CC1	-16%	-6%	1%	5.2%	7%	-10%&-10%	23%	-2%
CCc1ccc(N2CC(C(=O)Nc3ccc(C)c(S(=O)(=O)N4CCOCC4)c3)CC2=O)cc1 (stereo unspecified)	?	-2%	10%	-4.3%	-1%	6%	?	8%
Cc1ccc(S(=O)(=O)Nc2cccc(-c3cn4ccsc4n3)c2)cc1	80%[activator]	7%	32%	-7.6%	4.5µM*	?	?	-5%
CCOc1ccc(S(=O)(=O)N(C)C2CCCCC2)cc1	7%	-32%	8%	nt	5%[46.1 µM]	12%[46.1 µM]	nt	8%
CCC(C)NC(=O)CC(c1ccccc1)c1cc(C)ccc1O (stereo unspecified)	1%	7%	30%	nt	?	12%[46.1 µM]	nt	0%
Cc1cc(OCCN2CCCC2)ccc1C(C)C	-6%	-30%	6%	5.1%	-14%	?	-8%	2%
Nc1nonc1C(=O)NCCNS(=O)(=O)c1ccc(Br)cc1	nt	7%	9%	0.6%	15%	5%	-7%	-1%
CCc1ccc(-c2csc(-c3c[nH]c4ccccc34)n2)cc1	22%	-6%	-22%	4.4%	24%	?	-28%	-16%
COC(=O)[C@@]1(Cc2ccc(F)cc2)[C@H]2c3cc(C(=O)N(C)C)n(Cc4c(CO)[nH]cc(C)c4=O)c3C[C@H]2CN1C(=O)c1ccccc1	-9%	-9%	15%	-5.2%&3.1%	?	-22%	?	-15%
CCOc1ccc(N(CC(=O)NCc2ccc(C)cc2)S(=O)(=O)c2c(C)[nH]c(=O)[nH]c2=O)cc1	-8%&-18%	0%	-3%	3.5%	2%[46.1 µM]	18%&18%[46.1 µM]	-2%	-6%

Further structures.
SMILES	StopGo reporter	NS1 inh	RE007 growth inh	Cruzain inh Det	Lassa entry inh	MARV entry inh	Cruzain noTriton	SARS PLP yeast
COc1ccc(/C=C/c2nc(-c3ccccc3O)n(-c3ccccc3)n2)cc1	-2%	?	3%	-5.7%	17%	20%	-13%	15%
CC(=O)N1CCN(c2ccc(NC(=O)c3ccccc3)cc2)CC1	47%[activator]	-8%	7%	nt	1%	25%	nt	-14%
COc1ccc(OC)c(-n2c(=S)[nH]c3cc(C(=O)N4CCN(c5ccccc5)CC4)ccc3c2=O)c1	-10%	nt	-10%	nt	-14%	0%	nt	2%
NC(=O)c1sc2cc(C(F)(F)F)cnc2c1-c1ccccc1	3%	-4%	6%	nt	-2%	0%[46.1 µM]	nt	0%
CCCOc1ccc(CSc2n[nH]c(C)n2)cc1	-24%	-64%	-21%	nt	?	?	nt	-16%
